USP2a inhib: blocks human ubiquitin-specific protease USP2a | O75604 | USP2a enzymatic assay, qHTS inhibition | Potency, µM (highest dose often 38.3 µM), inactives show at the highest dose activity change, negative = inhibition, usual class: inhibitors | actives 0.1% (n = 60,000) | AID 927;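 also: potency is read from the fitted curve at half-maximal effect; nearly all actives have a fitted effect of over 60% in size; plate controls were DMSO for no effect and NEM full inhibition control for full effect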
Target sequence (O75604 whole entry, looked up): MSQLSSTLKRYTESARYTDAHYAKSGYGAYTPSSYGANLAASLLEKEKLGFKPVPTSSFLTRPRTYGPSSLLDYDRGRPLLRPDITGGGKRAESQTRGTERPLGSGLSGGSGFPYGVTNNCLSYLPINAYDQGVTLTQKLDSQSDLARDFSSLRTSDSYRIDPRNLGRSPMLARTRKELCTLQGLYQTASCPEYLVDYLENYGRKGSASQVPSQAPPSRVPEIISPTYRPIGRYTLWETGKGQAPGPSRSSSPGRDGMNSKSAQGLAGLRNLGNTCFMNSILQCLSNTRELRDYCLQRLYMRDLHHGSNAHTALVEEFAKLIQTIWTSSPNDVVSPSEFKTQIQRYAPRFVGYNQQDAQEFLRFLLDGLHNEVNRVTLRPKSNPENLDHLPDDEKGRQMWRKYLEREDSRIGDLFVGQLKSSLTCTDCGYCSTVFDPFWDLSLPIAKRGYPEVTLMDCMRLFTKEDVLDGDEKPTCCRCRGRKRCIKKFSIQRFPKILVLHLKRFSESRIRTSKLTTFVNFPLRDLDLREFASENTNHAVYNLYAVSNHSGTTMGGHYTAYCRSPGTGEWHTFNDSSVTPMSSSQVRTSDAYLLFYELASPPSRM
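USP2 core (20 nM final) was preincubated with compound for 30 min at RT in 20 mM Tris-HCl pH 8.0, 2 mM CaCl2, 2 mM beta-mercaptoethanol; Ub-PLA2 (20 nM) plus NBD C6-HPC (20 uM) then added, fluorescence read after 2.5 h.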
Texas Red fluor: compound fluoresces in the Texas Red spectral region; Compound fluorescence, Texas Red channel, 547/618 nm; stronger effect = higher value; max dye-equivalent concentration, M; actives 0.06% (n = 59,000); in the data active = max dye-equivalent concentration above about 10 nM; inconclusive = between about 1.1 nM and that limit
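qHTS profiling of intrinsic compound fluorescence; 100 mM Tris pH 8.0; 15 min RT; ex 547 / em 618 nm; response expressed as Texas Red dye-equivalent concentration from six-point plate standard.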
Fluorescein autfl: compound fluoresces in the fluorescein spectral region; Compound autofluorescence, 480/540 nm, fluorescein-equivalent; stronger effect = higher value; max fluorescein-equivalent concentration, M; actives 0.91% (n = 59,000); AID 593; in the data active = max fluorescein-equivalent concentration above about 10 nM; inconclusive = between about 1.1 nM and that limit
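Each compound is tested across a concentration series in 100 mM Tris buffer at pH 8.0. After 15 min at room temperature, plates are imaged with 480 nm excitation and 540 nm emission filters, and intensities are converted to fluorescein-equivalent values.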
Tau fil binding: tau filament binding | P10636 | recombinant tau filaments, thioflavin S fluorescence, 15 h; filaments grown with octadecylsulfate alongside compound | Potency, µM (doses to about 57.1 µM), for inactives: at the top dose activity change, negative = inhibition | actives 2% (n = 71,000) | AID 596;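 also: potency is read from the fitted curve at half-maximal effect; % is scaled to controls: 0 for no effect and ±100 for the full control effect; actives lower thioflavin S fluorescence by blocking filaments or displacing dye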
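ThS-based fibril read: tau 1 uM final, inducer ODS 30 uM final, 37 C for 15 h, ex 450/em 510 nm.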
ERK AVP inh: vasopressin-driven ERK pathway inhibition | HEK293-V1b, vasopressin-stimulated pERK AlphaScreen | Potency, µM (titrated, usually from 57.5 µM), for the others: top-dose activity, negative = inhibition, most hits filed as inhibitors | actives 0.99% (n = 72,000) | AID 995; also: potency is read from the fitted curve at half-maximal effect; % is scaled to controls: 0 for no effect and ±100 for the full control effect; nearly all actives have a fitted effect of over 55% in size
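HEK293 cells stably expressing V1b receptor, preincubated 30 min at 37 °C with compound, then stimulated 5 min with 25 nM vasopressin. Phospho-ERK by AlphaScreen SureFire after 5 h RT; normalized to DMSO and vasopressin; AC50 by Hill fit.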
HEK293 cAMP cs: parental HEK293 cAMP activation (counter-screen); Potency, µM (titrated, usually from 57.1 µM), inactives show top-dose activation, actives largely listed as activators; parental HEK293 CNG cAMP sensor, membrane potential fluorescence; actives 2.5% (n = 73,000); also: potency is read from the fitted curve at half-maximal effect; % of control where 0% means no effect; nearly all actives have a fitted effect of over 55% in size
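Parental HEK 293 cells stably expressing a modified CNG channel (no TSHR) report cAMP rise as membrane depolarization. Membrane potential dye with 100 uM RO 20-1724 was loaded for 60 min at room temperature, then compound added for 30 min; fluorescence read at 590 nm.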
Casp7 inh: caspase-7 (human) inhibition, allosteric or competitive | P55210 | recombinant caspase-7, Ac-DEVD-AFC fluorescence rate | Potency, µM (doses to about 57.5 µM), without a hit: at the top dose activity change, negative = inhibition, actives largely listed as inhibitors | actives 0.02% (n = 75,000); active = well fitted inhibition curve with a large enough effect in the main read-out, with a control signal flat, not every such curve was filed as active; inconclusive = small, poorly fitted or top-dose-only effect, or a change in a side signal; also: potency is read from the fitted curve at half-maximal effect; % of control where 0% means no effect
Target sequence (P55210 24-198 limits assumed): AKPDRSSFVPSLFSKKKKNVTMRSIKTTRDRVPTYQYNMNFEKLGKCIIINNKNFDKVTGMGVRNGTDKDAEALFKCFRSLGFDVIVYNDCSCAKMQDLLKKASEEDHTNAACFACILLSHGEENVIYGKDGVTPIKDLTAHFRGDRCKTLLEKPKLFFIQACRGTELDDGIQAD
Target sequence (P55210 207-303 limits assumed): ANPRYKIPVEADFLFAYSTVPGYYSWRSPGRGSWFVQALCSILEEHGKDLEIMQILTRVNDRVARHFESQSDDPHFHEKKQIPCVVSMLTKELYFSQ
Casp1 inh: caspase-1 (human) inhibition, allosteric or competitive | P29466 | Caspase-1 enzyme, Ac-WEHD-AFC fluorogenic rate | Potency, µM (series often up to 57.5 µM), for the others: at the top dose activity change, negative = inhibition, usual class: inhibitors | actives 0.03% (n = 75,000) | AID 900;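 also: potency is read from the fitted curve at half-maximal effect; plate controls were vehicle for no effect and no substrate for full effect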
Rhodamine autofl: compound fluoresces in the rhodamine spectral region; Rhodamine-region fluorescence, 547/598 nm, Tris buffer; stronger effect = higher value; max dye-equivalent concentration, M; actives 0.05% (n = 59,000); in the data active = max dye-equivalent concentration above about 11 nM; inconclusive = between about 1.1 nM and that limit
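qHTS spectral profiling of compounds without any target or enzyme present, in pH 8.0 Tris buffer; plates were read after a 15-minute room-temperature incubation using the rhodamine-region filter set.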
FLuc inh: blocks Photinus pyralis firefly luciferase activity | purified firefly luciferase, luminescence, 8 min | Potency, µM (doses to about 57.1 µM), for the others: at the top dose activity change, negative = inhibition, usual class: inhibitors | actives 2.2% (n = 72,000); also: potency is read from the fitted curve at half-maximal effect; % is scaled to controls: 0 for no effect and ±100 for the full control effect; nearly all actives have a fitted effect of over 40% in size
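Here, luciferase activity is measured as luminescence following an 8 min room-temperature reaction at 10 uM ATP, pH 7.2. Every library sample is titrated.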
The depositor's hits bear a star; i = inactive; ? = inconclusive; . = not tested or not shown; [ ] = another dose, or the depositor's remark. Unless noted, calls follow the shape of the dose curve; as a rule, active = well fitted curve in the direction sought with a large enough effect; inconclusive = small, poorly fitted or top-dose-only effect, or another doubt; inactive = no such curve, though single readings can be large; an effect the other way counts as inactive or inconclusive.

SMILES	USP2a inhib	Texas Red fluor	Fluorescein autfl	Tau fil binding	ERK AVP inh	HEK293 cAMP cs	Casp7 inh	Casp1 inh	Rhodamine autofl	FLuc inh
CCOC(=O)CSc1nc(C)c2cc(OC)ccc2n1	4%	i	i	8%	-8%	5%	-1%	0%	i	-13%
Nc1nnc(SCC(=O)c2ccccc2)s1	-5%	.	.	2%	-15%	7%	0%	0%	.	1%
CC(c1ccccc1)n1cnc2ccccc21 (configuration not stated)	7%	.	.	0%	1%	29%	0%	-1%	.	-1%
COc1ccc(CNc2ncnc3ccc(-c4cccc(C#N)c4)cc23)c(OC)c1	4%	i	?	i	5%	18%	-5%	-3%	i	-1%[2.29 µM]
CSc1ccccc1NC(=O)C1CC(c2ccccc2O)=NO1 (configuration not stated)	9%	i	?	58%	-4%	16%	-2%	-1%	i	0%
C=CCn1c(=O)/c(=C/c2ccc(O)cc2)s/c1=C(/C#N)c1nnc2n1CCCCC2	35%[activator]	i	9.4e-08M*	-2%	-7%	3%	-3%	-3%	i	-2%
O=C(O)c1ccc(S(=O)(=O)Cc2ccccc2)cc1	-1%	i	i	6%	17%	3.2µM*	-3%	-2%	i	4%
COc1ccc(NC(=O)CSc2nc3c(c(=O)n2-c2ccc(F)cc2)SCC3)c(OC)c1	33%[activator]	i	i	-8%	33%[activator]	16%	-3%	-1%	i	1%
c1ccc(CCc2nn3c(Cn4cnc5ccccc54)nnc3s2)cc1	30%[activator]	i	i	?	-16%	?	-2%	0%	i	0%
O=C(NCCc1c[nH]c2ccccc12)c1ccc(S(=O)(=O)NCc2ccco2)cc1	25%	i	i	-19%	-25%	-25%	-1%	0%	i	-3%
Oc1cc(NCc2cccnc2)ccc1-c1nc2ccccc2o1	34%[activator]	.	.	83%	-23%	-1%	-7%	-6%	.	?
Cn1c(=NC(=O)C2CCN(S(=O)(=O)c3cccs3)CC2)sc2ccccc21	1%	?	i	29%	-13%	14%	-2%	2%	i	2%
COC(=O)c1nnn(CC(=O)Nc2cccc(OC)c2)c1C(=O)OC	-5%	i	i	-4%	20%	-1%	1%	-6%	i	3%
CCN1CCCC1CNC(=O)c1cc2c(-c3cccc(OC)c3)nn(C)c2s1 (configuration not stated)	25%	i	i	56%	28%	10%	-3%	-3%	i	1%
COC(=O)c1cc2ccsc2n1CC(=O)N(C)c1ccccc1	9%	i	i	7%	-3%	25%	0%	1%	i	1%
CCOC(=O)c1c(-c2ccncc2)csc1N	0%	i	i	6%	-27%	6%	0%	-1%	i	2%
CC(C)(C)Cc1nc(-c2ccccn2)no1	-3%	i	?	8%	-3%	5%	-3%	0%	i	-3%
CCCCN=CC1=C(O)C(C(=O)OC)C(C)(C)CC1=O (configuration not stated)	3%	.	.	11%	-9%	-1%	0%	-4%	.	0%
COc1ccc(C(=O)C(CN2CCOCC2)c2ccccc2)cc1F (configuration not stated)	2%	i	i	7%	69%[activator]	3%	-1%	-1%	i	1%
Cc1noc(C)c1-c1cncnc1NCCN1CCOCC1	4%	i	i	-4%	-9%	-3%	-3%	-2%	i	1%[2.29 µM]
N#CC1=C(SCc2ccccc2)NC(=O)CC1c1cccc(O)c1 (configuration not stated)	0%	.	.	-9%	?	-1%	0%	-2%	.	1%
CCOc1ccc(-c2nnc(-c3ccco3)o2)cc1	29%	.	.	27%	10%	?	-1%	-2%	.	7.9µM*
Cc1cc(-c2nnc(-c3ccccc3)c(-c3ccccc3)n2)c(C)o1	34%[activator]	?	i	16µM*	10%	9%	-6%	-3%	i	-1%
FC(F)(F)c1ccccc1-c1cc(NCc2cccnc2)ncn1	-5%	i	?	-3%	2%	13%	-2%	-3%	i	2%[2.29 µM]
CCC(C)(C)n1nnnc1C(c1cc2cccc(C)c2[nH]c1=O)N1CCN(C(=O)c2ccco2)CC1 (configuration not stated)	40%[activator]	i	i	-13%	24%	-13%	-2%	-1%	i	8%

Reprinted from the part before: 2 compounds; new compounds follow.
SMILES	USP2a inhib	Texas Red fluor	Fluorescein autfl	Tau fil binding	ERK AVP inh	HEK293 cAMP cs	Casp7 inh	Casp1 inh	Rhodamine autofl	FLuc inh
FC(F)(F)c1ccccc1-c1cc(NCc2cccnc2)ncn1	-5%	i	?	-3%	2%	13%	-2%	-3%	i	2%[2.29 µM]
CCC(C)(C)n1nnnc1C(c1cc2cccc(C)c2[nH]c1=O)N1CCN(C(=O)c2ccco2)CC1 (configuration not stated)	40%[activator]	i	i	-13%	24%	-13%	-2%	-1%	i	8%
O=C(O)c1ccc(NS(=O)(=O)c2ccc(Cl)cc2)cc1	-4%	i	i	-8%	-21%	?	0%	-1%	i	1%
CCOC(=O)CSc1nc2nc(C)cc(C)n2n1	.	.	.	2%	.	2%	1%	-3%	.	0%
COc1ccc(OC)c(NS(=O)(=O)Cc2ccccc2)c1	5%	i	i	16µM*	?	5%	-2%	-1%	i	-4%
CCCC(=O)Nc1cc(C)c2c(=O)oc3ccccc3c2n1	.	.	.	11%	.	28%	2%	3%	.	1%
CCSc1nnc(NC(=O)CSc2nnc(Cc3cccn3C)n2CCc2ccccc2)s1	13%	i	i	18%	3%	16%	-4%	-4%	i	0%
c1ccc(-c2nnc(-c3ccco3)o2)cc1	-7%	i	i	12%	-1%	17%	0%	-1%	i	-23%
COc1ccc(C2C3=C(CCCC3=O)Nc3nc(SCc4ccc(C(=O)O)cc4)nn32)cc1OC (configuration not stated)	.	.	.	5%	.	1%	-1%	-3%	.	4%
CCC(=O)Nc1ccc(S(=O)(=O)Nc2cccc(C)c2)cc1OC	16%	?	i	3%	-21%	0%	1%	-1%	i	1%
COc1ccc2cc3cc(C(=O)NCc4ccc5c(c4)OCO5)oc3nc2c1	19%	i	i	150%	22%	19%	-7%	-5%	i	1%
FC(F)Oc1ccccc1C1CC(c2ccc(Br)s2)Nc2ncnn21 (configuration not stated)	18%	i	i	29%	17%	?	-3%	-3%	i	0%
NC1=NC2(CCN(Cc3ccccc3)CC2)n2c(nc3ccccc32)N1	26%	i	?	66%	-10%	4%	0%	-1%	i	-2%
CCc1ccc2oc(-c3ccc(N)cc3)nc2c1	8%	i	i	25µM*	2%	-4%	-1%	-2%	i	2µM*
Fc1ccc(OCc2nn3c(Cn4nnc5ccccc54)nnc3s2)cc1	42%[activator]	i	?	-20%	-25%	9%	-6%	-1%	i	-2%
O=S(=O)(NC1CCCCCC1)c1cccc2cccnc12	6%	i	i	-8%	3%	28%	-2%	-1%	i	3%
c1cncc(-c2nn3c(-c4ccncc4)nnc3s2)c1	3%	?	i	-1%	-4%	5%	-2%	-8%	i	-2%
Cc1cc(C)n(-c2ccc(C(=O)Nc3ccc4c(c3)OCCO4)cc2)n1	6%	i	?	-7%	-17%	4%	5%	-1%	i	13µM*
COc1ccc(OC)c(CCNC(=O)CC2Oc3ccccc3NC2=O)c1 (configuration not stated)	.	.	.	8%	1%	9%	-2%	-3%	.	-1%
O=C(CN1CCOCC1)Nc1c2c(nc3ccccc13)N(Cc1ccccc1)CC2	-2%	i	?	-6%	-21%	9%	-3%	-1%	i	-4%
CCc1c(C)sc(NC(=O)c2ccco2)c1C(=O)N1CCOCC1	-6%	i	i	7%	-16%	-56%[inhibitor]	-1%	-2%	i	0%
COc1ccc(N2C(=O)C(Cl)=C(N(CCO)Cc3ccccc3)C2=O)cc1	9%	?	i	-5%	13µM*	-8%	1%	-1%	i	-5%
CCNC(=O)CC1C(=O)N(c2ccc(F)cc2)C(=O)N1CCC(C)C (configuration not stated)	4%	i	i	-7%	5%	14%	1%	0%	i	2%
O=C(Cn1cnc2sc(-c3ccccc3)cc2c1=O)N1CCOCC1	4%	i	i	3%	3%	0%	-1%	-2%	i	2%
Cc1cc(C)c2nc3s/c(=C/c4ccc5c(c4)n(C)c(=O)n5C)c(=O)n3c2c1	-3%	i	i	25µM*	-18%	10%	-3%	-1%	i	2%
O=C(NCC1COc2ccccc2O1)c1c[nH]c2ccc(S(=O)(=O)N3CCOCC3)cc2c1=O (configuration not stated)	9%	i	i	38%	7%	-14%	-4%	-4%	i	-1%
CCOC(=O)Cn1c2ccc(OC)cc2c2nc3ccccc3nc21	28%	i	i	-12%	-17%	20%	-2%	0%	i	0%
COc1ccc(S(=O)(=O)N(CC(=O)NCCCN(C)C)c2ccc(C)cc2)cc1OC	.	.	.	.	.	-27%	-2%	-1%	.	.
CCOc1ccc(C(=O)Nc2cc(C)c3c(=O)oc4ccccc4c3n2)cc1	.	.	.	6%	.	2%	0%	-2%	.	1%
COc1cc(C2/C(=C(/O)c3ccc(OCC(C)C)cc3)C(=O)C(=O)N2CCN(C)C)ccc1O (configuration not stated)	3%	?	i	-12%	-15%	3%	0%	-1%	i	0%
Cc1ccc2nc(SCC(=O)NCc3ccco3)c(C#N)cc2c1	-14%	i	?	-25%	10%	12%	-2%	-3%	i	-4%

Profiles, quoted from the list. Values in the order: USP2a inhib	Texas Red fluor	Fluorescein autfl	Tau fil binding	ERK AVP inh	HEK293 cAMP cs	Casp7 inh	Casp1 inh	Rhodamine autofl	FLuc inh
Entry for c1ccc(-c2nnc(-c3ccco3)o2)cc1 : -7%	i	i	12%	-1%	17%	0%	-1%	i	-23%
Entry for Cc1cc(C)n(-c2ccc(C(=O)Nc3ccc4c(c3)OCCO4)cc2)n1 : 6%	i	?	-7%	-17%	4%	5%	-1%	i	13µM*
Entry for CCOC(=O)CSc1nc2nc(C)cc(C)n2n1 : .	.	.	2%	.	2%	1%	-3%	.	0%

Screens deposited in PubChem by National Center for Advancing Translational Sciences (NCATS).

These rows are one share of the data; count on the stated rates, not on these rows.
